From PubChem
Vaccinia mCherry: inhibitors of vaccinia virus infection (mCherry reporter signal). Potency, µM (doses to about 36.5 µM), without a hit: at the top dose activity change, negative = inhibition, hits mostly inhibitors. Vaccinia virus mCherry reporter infection, fluorescence; about a quarter of the inactives have no number. hit rate 0.63% among 310,000. AID 720579; active = well fitted inhibition curve with a large enough effect; inconclusive = small, poorly fitted or top-dose-only effect; inactive = no such curve, though single readings can be large or run the other way; tested in A549 cells; further: nearly all actives have a fitted effect of over 35% in size; inactives centre near -10
Vaccinia Venus: vaccinia inhibition (Venus reporter); Vaccinia virus Venus reporter expression, fluorescence; Potency, µM (top dose mostly 36.5 µM), inactives show at the top dose activity change, negative = inhibition, most hits filed as inhibitors; hit rate 0.46% among 330,000; active means well fitted inhibition curve with a large enough effect; inconclusive means small, poorly fitted or top-dose-only effect; inactive means no such curve, though single readings can be large or run the other way; tested in A549 cells; further: nearly all actives have a fitted effect of over 30% in size; inactives centre near -10
Starred values were filed as active, the others as inactive; i = inactive; ? = inconclusive; / = not tested or not shown; [ ] = remark or other dose. On the % scale 0 is the no-effect control and ±100 the full control effect; potency means the concentration at half of the fitted maximal effect.

Values run as follows: Vaccinia mCherry | Vaccinia Venus
- Cc1nn(CC(=O)NC2CCCCC2)c(=O)c2cc3cc(F)ccc3n12
  0% | 2%
- COc1ccc(CNS(=O)(=O)c2ccc(C(=O)N(C)C)s2)cc1
  -11% | 1%
- COc1cccc(CC2(CO)CCN(CC3=CC[C@H]4C[C@@H]3C4(C)C)CC2)c1
  -9% | -24%
- O=C(COC(=O)c1ccc2c(c1)OCO2)NCc1ccc(Cl)cc1
  -7% | -21%
- CCc1nc(SCc2ccc(F)cc2)[nH]c(=O)c1C#N
  -12% | -7%
- O=C(NCCc1ccc(O)c(O)c1)C1COc2ccccc2O1 (configuration not stated)
  i | 4%
- C[C@]12c3[nH]c4ccccc4c3CCN1C(=O)C(CC(=O)NCCN1CCOCC1)C[C@@H]2C(=O)N1CCCCC1 (some centres not stated)
  i | -17%
- Cc1cc(NC(=O)CCC(=O)N(Cc2ccco2)C2(C(=O)NC3CCCCC3)CCN(C)CC2)no1
  -3% | 0%
- COc1cc(OC)c(OC)cc1CNCCSc1nnnn1C
  -11% | -4%
- COC(=O)[C@H](Cc1ccccc1)NC(=O)[C@@]1(C)C[C@@H]1[C@@H](NC(=O)OCc1ccccc1)c1ccccc1
  i | -3%
- CCS(=O)(=O)c1ccc2oc(Nc3ccccc3C)nc2c1
  -10%[1.46 µM] | -27%
- Cc1c(C)c2c(cc(C)c3c(-c4ccccc4)coc32)oc1=O
  -6% | -3%
- COc1cc(NC(=O)Cc2ccc(OC)c(S(=O)(=O)N3CCOCC3)c2)c(OC)cc1Cl
  -7% | -12%
- Cc1nn(CCCC(=O)NCc2ccc(F)cc2)c(C)c1[N+](=O)[O-]
  -8% | -6%
- CC(CC(=O)N1CCN(S(=O)(=O)c2ccccc2)CC1)n1cncn1 (configuration not stated)
  -14% | 1%
- CCC1(c2ccccc2)NC(=O)N(CC(=O)Nc2cc(S(=O)(=O)N3CCOCC3)ccc2OC(C)C)C1=O (configuration not stated)
  i | -10%
- COCCNC(=O)NC(=O)COC(=O)c1cccn1C
  4% | 0%
- Cc1cc(OCC(O)CN2CCOCC2)cc(C)c1Cl (configuration not stated)
  i | -11%
- Cc1ccc(C)c(N2CCN(C(=O)C3CCC(CNS(=O)(=O)c4cccs4)CC3)CC2)c1 (configuration not stated)
  ? | -21%
- COc1ccc(-c2noc(CCC(=O)N3CCN(c4cccc(C)c4C)CC3)n2)cc1
  i | -1%
- COc1ccc(NC(=O)c2ccc(OCc3c(C)noc3C)c(OC)c2)cn1
  14% | 5%
- O=C(NCC1CCCCC1)c1ccc2sc([C@H]3C[C@H](O)[C@@H](CO)O3)nc2c1
  22% | -6%
- CC1C/C(=C\c2cccnc2)C(=O)/C(=C/c2cccnc2)C1 (configuration not stated)
  ? | 8.9µM*
- O=C1C2C3C=CC(C4CC34)C2C(=O)N1/N=C/c1cccs1 (configuration not stated)
  -6% | -5%
- COc1ccc(NC(=O)C2CCC(CNS(=O)(=O)c3csc(C(N)=O)c3)CC2)cc1 (configuration not stated)
  0% | -10%
- O=C(c1cc(S(=O)(=O)N2CCCC2)c(Cl)cc1Cl)N1CCCC1
  i | 3%
- O=C(N/N=C/c1ccc(OC(=O)c2ccco2)cc1)c1ccncc1
  i | -5%
- CCOc1ccc(CCNC(=O)Cn2nc(C)c3c(C)n(-c4ccccc4)nc3c2=O)cc1OCC
  -21% | -22%
- CNc1ccc2ncc(-c3ccc(OC)c(OC)c3)n2n1
  -5% | ?
- CC(C(=O)NCc1ccccc1)n1c(CSCCOc2ccccc2)nc2ccccc21 (configuration not stated)
  -16% | -13%
- CN(C)c1ccc(CNC(=O)C2Cc3c(-c4ccccc4Oc4ccccc4)ccnc3O2)cc1 (configuration not stated)
  9% | -25%
- Cn1c(=O)c(-c2ccccc2N)nc2ccccc21
  -4% | -15%
- O=C(c1ccccc1)N1CCN(c2ccc(Cl)cc2)CC1
  -7% | -22%
- CCNc1ccc(S(N)(=O)=O)cc1[N+](=O)[O-]
  -12% | -6%
- Cn1nnnc1SC(C(=O)Nc1ccc(F)cc1)c1ccccc1 (configuration not stated)
  -27% | -15%
- FC(F)(F)c1ccccc1Cc1c(-c2cccc(Br)c2)nc2ccc(Cl)cn12
  14% | 5%
- COc1ccc(CNC(=O)CCNS(=O)(=O)c2cc(Br)cnc2N)cc1
  -17%[7.34 µM] | -1%[7.34 µM]
- Clc1cccc(Cc2c(C3CCCCC3)nc3ccc(Br)cn23)c1
  13% | 6%
- COc1ccccc1N(CC1CO1)S(=O)(=O)c1ccc(C)cc1 (configuration not stated)
  i | -4%
- Cc1ccc(NC(=O)N2CCCc3ccccc32)cc1C
  i | 5%

In a second layout: entries from further up.
SMILES,Vaccinia mCherry,Vaccinia Venus
COCCNC(=O)NC(=O)COC(=O)c1cccn1C,4%,0%
Clc1cccc(Cc2c(C3CCCCC3)nc3ccc(Br)cn23)c1,13%,6%
Cc1cc(OCC(O)CN2CCOCC2)cc(C)c1Cl (configuration not stated),i,-11%
O=C(c1ccccc1)N1CCN(c2ccc(Cl)cc2)CC1,-7%,-22%
Cc1cc(NC(=O)CCC(=O)N(Cc2ccco2)C2(C(=O)NC3CCCCC3)CCN(C)CC2)no1,-3%,0%
O=C(c1cc(S(=O)(=O)N2CCCC2)c(Cl)cc1Cl)N1CCCC1,i,3%
O=C1C2C3C=CC(C4CC34)C2C(=O)N1/N=C/c1cccs1 (configuration not stated),-6%,-5%

Next part:
Values run as follows: Vaccinia mCherry | Vaccinia Venus
- COc1ccc(Br)cc1S(=O)(=O)N1CCCC1
  -15% | -8%
- O=C(C1CCCO1)N1CCN(c2ccccn2)CC1 (configuration not stated)
  -5% | -6%
- CC(C)CCNC(=O)c1cc2c(s1)-c1ccccc1S(=O)(=O)C2
  -11% | -24%
- CSc1sc(C(=O)N2CCCCC2)c(-c2cccs2)c1C#N
  9% | -2%
- COc1ccc(OC)c(Nc2nc(NCc3ccco3)nc(N)c2[N+](=O)[O-])c1
  -17% | -3%
- CN(CCCNC(=O)Cn1c(=O)c2cccn2c2ccccc21)Cc1ccccc1
  -14%[7.34 µM] | -2%[7.34 µM]
- Cc1ccccc1C(=O)Nc1nnc(S(=O)(=O)N(C)Cc2ccccc2)s1
  -4% | -2%
- CC(C(=O)NC(=O)NC1CCCCC1)N1CCN(c2ccc(O)cc2)CC1 (configuration not stated)
  -20% | -17%
- CC(=O)NC(CCS(C)(=O)=O)C(=O)Nc1c(C)cccc1C (configuration not stated)
  i | -2%
- CN1CCN(c2c([N+](=O)[O-])cnc3ccccc23)CC1
  i | -13%
- O=C(CN1CC(=O)Oc2ccccc21)OCC(=O)c1cccc(Br)c1
  -7% | 3%
- CN(C)c1ccc([C@@H]2[C@@H]([N+](=O)[O-])[C@H]3C=Cc4ccccc4N3[C@H]2C(=O)c2ccc(Cl)cc2)cc1
  -13% | 15%
- CCC1=C(c2ccc(OC)cc2)CCC(C(=O)O)C1C (configuration not stated)
  -2% | -21%
- NS(=O)(=O)c1ccc(CCNC(=O)c2cc(-c3ccccn3)nc3ccc(Br)cc23)cc1
  ? | ?
- CCC(=O)OC1(c2ccccc2)CCN(C)CC1C (configuration not stated)
  -8% | -3%
- O=C(c1cccs1)N1CCC(c2nc3c(nnn3Cc3c(Cl)cccc3Cl)c(=O)[nH]2)CC1
  -11% | -8%
- O=C(Nc1ccccc1N1CCOCC1)c1cccnc1Cl
  1% | 4%
- O=C(Nc1ccc2c(c1)CCCN2C(=O)c1ccco1)c1cc([N+](=O)[O-])ccc1Cl
  ? | -6%
- O=C(Oc1ccc2c(c1)OCO2)c1ccncc1
  -6% | 6%
- CC(=O)c1c(C)[nH]c(C(=O)OCc2ccc(F)cc2Cl)c1C
  -6% | -23%
- COc1cc2c(cc1OC)C(C(=O)Nc1ccc3c(c1)OCCO3)C1c3ccccc3CCN1C2=O (configuration not stated)
  -18% | -6%
- O=C(CSc1nccn1-c1ccc(F)cc1)Nc1ccc2c(c1)OCO2
  / | -22%
- CC(C)(CO)Nc1nc(Nc2ccccc2)nc(Nc2ccccc2)n1
  / | -26%
- CCN(CC)c1ccc(NC(=O)C2CC(=O)N(Cc3ccccc3)C2)cc1 (configuration not stated)
  -16% | -8%
- Cc1ccc(C(=O)CN2C(=O)NC3(CCc4ccccc43)C2=O)c(C)c1 (configuration not stated)
  i | -9%
- CCOc1cccc2sc(N3CCN(C(=O)c4ccc5ncsc5c4)CC3)nc12
  i | -10%
- Cc1csc2ncnc(N3CCN(S(=O)(=O)c4cccc(C(F)(F)F)c4)CC3)c12
  -3% | -13%
- CC1C(=O)C(C)C(c2cc(Br)ccc2O)NC1c1cc(Br)ccc1O (configuration not stated)
  ? | ?
- CC(C)(C)c1ccc(S(=O)(=O)NC(=O)C2(C)CCN2C(=O)CC2CC2)cc1 (configuration not stated)
  1% | -5%
- Cc1cccc(C(=O)N[C@H](C(=O)Nc2nccs2)C(C)C)c1
  -15% | -9%
- CCOc1ccc(Cc2nn[nH]n2)cc1
  -12% | -10%
- CC(=O)OCC#CCSc1nc2ccccc2n1C
  -28% | -10%
- CCOc1cccc(=NC2CCCCC2)c2c(C)[nH]c(C)c12
  ? | -28%
- Cc1cc(NC(=O)c2ccc([N+](=O)[O-])cc2)n(C)n1
  i | 2%
- CCCCSCCCNC(=O)c1ccc(CS(=O)(=O)c2ccccc2OC)o1
  -16% | -14%
- CCC(C)Sc1ccc([C@H]2N[C@@](Cc3ccccc3)(C(=O)OC)[C@H]3C(=O)N(C)C(=O)[C@@H]23)cc1 (some centres not stated)
  -15% | -25%
- Cc1cc(C)cc(C(=O)Nc2nc3ccccc3[nH]2)c1
  -3% | -12%
- COC(=O)c1cn(Cc2cccnc2)c(=O)c2ccccc12
  -2% | -2%
- Cc1cc(C(=O)Nc2c(F)cc(F)cc2Br)n(-c2ccccc2)n1
  -15% | -17%
- CCC(C(=O)OCC(=O)NC(=O)c1ccccc1)c1ccccc1 (configuration not stated)
  -5% | -20%
- CCC1(c2ccccc2)NC(=O)N(CC(=O)N(C)CC(=O)Nc2cccc(OC)c2)C1=O (configuration not stated)
  i | -3%
- CCOC(=O)c1c(NC(=O)CN2C(=O)NC3(CCC(C)CC3)C2=O)sc(C)c1-c1ccc(C)cc1 (configuration not stated)
  -15% | -4%
- CCOC(=O)c1c(CSc2nc(C)cc(C)c2C#N)n(C)c2cc(Br)c(OC(C)=O)cc12
  -9% | -1%
- COc1ccc(CCNC(=O)Cn2c(=O)cnc3ccccc32)cc1
  / | ?
- Cc1ccc(OCC(=O)Oc2ccc(C(C)C)cc2)cc1
  i | -9%
- COCCC(=O)N1CCC(Oc2ccc(C(=O)N3CCCCC3CCO)cc2)CC1 (configuration not stated)
  -14% | -11%
- COc1cccc(CNC(=O)CCC2CCCN(Cc3cc4ccccc4o3)C2)c1 (configuration not stated)
  ? | -9%
- Cc1ccc(NC(=S)N(CCCN2CCCC2)Cc2cccn2Cc2ccc(Cl)cc2)cc1
  ? | ?
- O=C(CSc1nnc(NC(=O)c2ccccc2F)s1)NCc1ccc(F)cc1
  i | -12%
- CC(C(=O)N1CCOCCOCCOCCOCCOCC1)N1C(=O)c2ccccc2C1=O (configuration not stated)
  -16% | -22%
- Cc1cc2c(cc1S(=O)(=O)N(C)C1CCCCC1)OCC(=O)N2
  -15% | -26%
- Cc1cccc(NC(=O)c2ccc3c(c2)C(=O)N(c2ccccc2C)C3=O)n1
  -15% | -26%
- CCC(=O)Nc1nc2c(c(=O)[nH]1)CCCC2
  -3% | -13%
- Cc1onc(-c2ccccc2Cl)c1C(=O)OCc1nnc(-c2ccccc2)o1
  -8% | -8%
- COC(=O)CN1C(=O)Nc2ccc(Br)cc2C1c1ccccc1Cl (configuration not stated)
  -3% | -24%
- O=C(NN=C1CCCC1)c1cccc(Br)c1
  -7% | -16%
- COc1ccc(OC)c(C=NNC(=O)NN=Cc2cc(OC)ccc2OC)c1
  -4% | -20%
- CC(C)CC(OC(=O)c1ccco1)C(=O)NC1CCCC1 (configuration not stated)
  i | -9%
- COC(C[C@H](O)[C@@H](C)[C@@H](O)COCc1ccccc1)OC
  i | -11%
- COc1ccccc1OCC(=O)NNC(=O)c1ccc2c(=O)n3c(nc2c1)CCC3
  i | -10%

(list continues)
Values run as follows: Vaccinia mCherry | Vaccinia Venus
- CCOc1ccc(CNC(=O)c2ccc(NC(=O)N3CCCCc4ccccc43)cc2)cc1
  i | -27%
- COc1cc(C(=O)NCCSc2c(C)[nH]c3ccccc23)cc(OC)c1OC
  -8% | -13%
- COc1ccc(N2CCN(c3ccc(N)cc3C#N)CC2)cc1
  / | -13%
- CCOC(=O)C1CCN(S(=O)(=O)c2c(C)n[nH]c2C)CC1
  -12% | -16%
- CC(C)(C)c1ccc(OCC(=O)N/N=C/c2ccsc2)cc1
  -15% | -16%
- O=C(Cn1c(=O)oc2cc(S(=O)(=O)N3CCc4ccccc43)ccc21)NC1CCCC1
  i | -10%
- Cn1cc([C@]2(O)C(=O)Nc3ccc(F)cc32)c2ccccc21
  -29% | -24%
- CCCCCn1c2nc3ccccc3nc2c2c(=O)n(CC(C)C)cnc21
  -14% | -6%
- Cc1onc(-c2ccccc2)c1C(=O)Nc1ccc2c(C)cc(=O)oc2c1
  / | -29%
- COc1ccc(NC(=O)CSc2nncn2C)cc1OC
  i | -15%
- CC1CCc2sc(C(=O)NCC(C)(C)N3CCOCC3)cc2C1 (configuration not stated)
  -26% | -20%
